# Assay outcomes deposited in PubChem by Vanderbilt University.
# GIRK2 activ: activators of human GIRK2 potassium channels; P48051; HEK293-GIRK2 thallium flux, Thallos fluorescence; calls only for hits at 25 µM; hit rate 0.05% among 63,000; AID 1259325;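 active = among the strongest 0.2% of first-round signals and kept after retests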;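 also: first round at about 10 µM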
# Target sequence (P48051 whole entry, looked up): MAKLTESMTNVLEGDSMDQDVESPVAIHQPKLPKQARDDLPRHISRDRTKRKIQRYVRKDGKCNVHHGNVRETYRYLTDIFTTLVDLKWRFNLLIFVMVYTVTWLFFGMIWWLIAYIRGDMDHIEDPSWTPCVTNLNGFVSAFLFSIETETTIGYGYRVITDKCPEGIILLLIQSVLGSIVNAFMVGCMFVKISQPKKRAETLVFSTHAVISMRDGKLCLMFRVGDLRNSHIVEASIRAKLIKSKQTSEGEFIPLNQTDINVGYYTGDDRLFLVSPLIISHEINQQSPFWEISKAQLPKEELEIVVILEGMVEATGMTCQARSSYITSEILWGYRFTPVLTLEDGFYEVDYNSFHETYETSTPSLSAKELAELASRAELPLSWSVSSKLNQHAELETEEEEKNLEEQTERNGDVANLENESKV
# Calls only; i = inactive.
GIRK2 activ | SMILES
i | Cc1ccccc1-c1ccc(N2CCN(S(=O)(=O)c3ccc4c(c3)OCCO4)CC2)nn1
i | COc1cc2c(cc1OC)CN(S(=O)(=O)CCCNC(=O)C(C)(C)C)CC2
i | COc1ccc(-n2nnc(C(N)=O)n2)cc1
i | O=C(CCn1cnc2c([nH]c3ccccc32)c1=O)N1CCN(c2cccc(Cl)c2)CC1
i | CCCCCCCCCCCCCC(=O)O
i | O=C(Cn1nc2c(SCc3ccc(Cl)cc3)nccn2c1=O)N1CCN(c2ccccc2)CC1
i | Cc1noc(CNC(=O)C2CCN(C(=O)/C=C/c3cccs3)CC2)n1
i | Cc1noc(-c2ccc(NC(=O)CSc3nc4ccccc4s3)cc2)n1
i | Cc1ccc2c(Nc3ccccc3)c(C(=O)N3CCCCCC3)cnc2n1
i | O=C(CC(c1ccccc1)c1ccccc1)N1CCOCC1CO (configuration not stated)
i | O=c1c(-c2nc(-c3ccccc3Cl)no2)cccn1Cc1cccc(C(F)(F)F)c1
i | CCNC(=O)c1csc(Nc2ccc(S(C)(=O)=O)cc2)n1
i | COc1ccc(S(=O)(=O)Cc2ccc(-c3nc(-c4cc(OC)c(OC)c(OC)c4)no3)o2)cc1
i | O=S(=O)(Nc1ccc(Br)cc1F)c1cccc(Cl)c1
i | CSc1ccc(-c2noc(Cn3ncn4nc(-c5ccccc5Cl)cc4c3=O)n2)cc1

# Reformatted as tab-separated lines: 5 of the compounds above
SMILES	GIRK2 activ
O=C(CC(c1ccccc1)c1ccccc1)N1CCOCC1CO (configuration not stated)	i
O=c1c(-c2nc(-c3ccccc3Cl)no2)cccn1Cc1cccc(C(F)(F)F)c1	i
CCNC(=O)c1csc(Nc2ccc(S(C)(=O)=O)cc2)n1	i
COc1ccc(S(=O)(=O)Cc2ccc(-c3nc(-c4cc(OC)c(OC)c(OC)c4)no3)o2)cc1	i
O=S(=O)(Nc1ccc(Br)cc1F)c1cccc(Cl)c1	i

# (listing goes on)
GIRK2 activ | SMILES
i | Fc1ccc(-c2ncn(C3CCNCC3)c2-c2ccnc(Oc3ccccc3)n2)cc1
i | CC1CCN(c2cc(NC(=O)c3cccc(Cl)c3)ncn2)CC1
i | COC(=O)CCn1c(=O)c2c(nc3n(CCc4ccccc4)c(C)cn23)n(C)c1=O
i | O=C(COc1ccc(Cl)cc1)NCC#CCOc1ccc2c(c1)OCO2
i | CCN1CCc2c(sc(NC(=O)c3ccc(C)c(C)c3)c2-c2nc3ccccc3s2)C1
i | CC(O)(CNC(=O)C(=O)Nc1ccccc1)c1ccco1 (configuration not stated)
i | COc1ccc(C(=O)COC(=O)c2c3c(nc4ccccc24)CCCC3)cc1
i | O=C(CN1CCc2[nH]c3ccc(F)cc3c(=O)c2C1)NC1CCCCC1
i | Cc1cc(C)n(CCNC(=O)NCCOc2ccccc2)n1
i | O=C(NCCS(=O)(=O)NC1CCCCC1)c1ccc2c(c1)OCO2
i | Cc1c(C(=O)N2CCN(C(=O)C3CC3c3cccs3)CC2)cnn1-c1ccccc1 (configuration not stated)
i | Cc1c(C(=O)NCCn2nc(-c3ccco3)ccc2=O)nnn1-c1nccs1
i | CCCCCCCCCCCc1cc(=O)c2ccccc2n1C
i | COC(=O)c1ccc(NC(=O)C(=O)NCCC(O)c2ccoc2)cc1 (configuration not stated)
i | COc1ccccc1N1CCN(CC(O)COc2cccc3ccccc23)CC1 (configuration not stated)
i | O=C(NCC1(c2ccc(F)cc2)CC1)Nc1ccccc1Cl
i | Cc1ccc(S(=O)(=O)N2CCN(C(=O)N3CCCC3)CC2)cc1C
i | O=C(CSc1nnc2scc(-c3ccccc3)n12)Nc1nsc(-c2ccccc2)n1
i | COc1ccc(CCn2c(-c3cccs3)nc3oc4ccccc4c(=O)c3c2=O)cc1
i | O=S(=O)(c1ccc(Cl)s1)N1CCCC(c2nnc(C(F)(F)F)o2)C1 (configuration not stated)
i | CCCCOc1ccc(C(=O)Oc2c(Sc3ccccc3)c(C)nn2C(C)(C)C)cc1
i | O=C(Nc1nsc(-c2ccccc2)n1)c1cccs1
i | O=C(Cn1c(=O)nc(-c2ccccc2F)c2cc(Cl)ccc21)NCc1ccc2c(c1)OCO2
i | CSc1cccc(NC(=O)CSc2nccnc2N2CCSCC2)c1
i | OC(CN1CCN(Cc2ccccn2)CC1)c1ccco1 (configuration not stated)
i | O=C(Cc1ccc(NC(=O)c2ncc(-c3ccccc3)o2)cc1)NCc1cccs1
i | COc1ccc(C(=O)NCCS(=O)(=O)N2CCC3(CC2)OCCO3)cc1
i | O=C(c1ccc(Cl)cc1)N1CCN(S(=O)(=O)c2cc3c4c(c2)CCC(=O)N4CCC3)CC1
i | O=C1N(c2ccc(F)cc2)C2CS(=O)(=O)CC2N1c1cccc(C(F)(F)F)c1 (configuration not stated)
i | COc1cccc2cc(C(=O)N3CCCSCC3CN(C)C)oc12 (configuration not stated)
i | CCCCn1c(=O)c2ccccc2n(Cc2nc(-c3ccc(C)c(C)c3)no2)c1=O
i | Cc1ccc(S(=O)(=O)N2CCCC(c3nnc(COc4ccccc4)o3)C2)cc1C (configuration not stated)
i | Cc1cn2c3c(=O)n(Cc4ccccc4Cl)c(=O)n(C)c3nc2n1CCCO
i | COc1cccc(-n2nc(-c3nc(-c4cc(OC)c(OC)c(OC)c4)no3)c3ccccc3c2=O)c1
i | COc1ccc(NC(=O)c2nc(-c3cn(Cc4ccc(C)cc4)nn3)no2)cc1Cl
i | Cc1cc(C)c(NC(=O)Cn2nc3c4ccc(Cl)cc4ncn3c2=O)c(C)c1
i | COc1ccc(CNC(=O)Nc2nc3c(s2)Cc2ccccc2-3)cc1OC
i | O=C(NC1CCS(=O)(=O)C1)c1nnn(-c2ccc(Br)cc2)n1 (configuration not stated)
i | COc1ccc(C(=O)N2CCC3(CC2)NC(=O)c2cc(C)ccc2N3C)cc1OC
i | CCOc1ccc(-c2noc(Cn3c(=O)n(CC(C)C)c(=O)c4ccccc43)n2)cc1OC
i | O=C(O)C1CCCCC1C(=O)Nc1ccc(S(=O)(=O)N2CCCCC2)cc1 (configuration not stated)
i | CCCCC[C@H](O)/C=C/[C@H]1C=CC(=O)[C@H]1CCCCCCC(=O)O
i | Cc1ccccc1C(=O)NCCCn1ccnc1-c1ccccc1
i | O=C(NCc1ccc(F)cc1)N1CC(c2nc(Cc3ccccc3)no2)C1
i | COc1ccccc1-c1nnc(NC(=O)c2ccc(Oc3ccccc3)cc2)o1
i | O=C(/C=C/c1ccco1)NCc1cnn2ccccc12
i | O=C(c1nnn(-c2ccc(F)cc2)n1)N(CCO)Cc1ccccc1
i | Cc1ccc(-c2noc(-c3ccc(=O)n(CC(=O)Nc4cccc(Br)c4)c3)n2)cc1
i | O=C(CCCSc1ccccc1)N1CCN(c2nc3ccc([N+](=O)[O-])cc3s2)CC1
i | O=C(C1CCN(c2ncnc3c2oc2ccccc23)CC1)N1CCN(c2cccc(Cl)c2)CC1
i | O=C(C1COCC(=O)N1Cc1ccccc1)N1CCN(c2ccccc2O)CC1 (configuration not stated)
i | Cc1oc2cc(OCC(N)=O)ccc2c(=O)c1Oc1ccccc1Br
i | COc1cc(/C=C/C(=O)Nc2nnc(-c3csc(C)n3)o2)cc(OC)c1OC
i | O=C(NCCc1c[nH]c2ccccc12)C(=O)c1cn(CC(=O)N2CCOCC2)c2ccccc12
i | O=C(c1ccccn1)N1CCN(c2ccc(-n3cccc3)nn2)CC1
i | O=C(Cn1cccc(S(=O)(=O)N2CCCC2)c1=O)Nc1ccccc1
i | CN(C)C(=O)c1nnn(-c2ccc(NC(=O)c3ccccc3C(F)(F)F)cc2)n1
i | CN(C)S(=O)(=O)c1ccc(C(=O)N2CCCC(c3nnc(-c4ccccc4F)s3)C2)cc1 (configuration not stated)
i | O=C(NCCc1ccoc1)c1ccc2c(c1)OCO2
i | COc1ccc(C(=O)NC(C(=O)N2CCN(C(C)=O)CC2)S(=O)(=O)c2ccc(C)cc2)cc1 (configuration not stated)

# The list goes on.
GIRK2 activ | SMILES
i | O=C(/C=C/c1cccnc1)NC1CCN(c2ccc(-c3cccc(F)c3)nn2)CC1
i | O=C1/C(=C/c2cccc(Cl)c2)Oc2c1ccc1c2CN(C2CCS(=O)(=O)C2)CO1 (configuration not stated)
i | CC(C)N(C(=O)CN1C(=O)c2ccccc2S1(=O)=O)C(C)C
i | CCOC(=O)c1cnn2ccc(NC(=O)c3snnc3C)cc12
i | COc1cc(NC(=O)Cn2ncn3nc(-c4ccc(C)c(C)c4)cc3c2=O)cc(OC)c1
i | CCOC(=O)c1csc(NC(=O)c2csc3nc(-c4ccc(F)cc4)cn23)n1
i | COc1ccc(NC(=O)CSc2nc3c(c(=O)[nH]2)CN(Cc2ccccc2)CC3)c(OC)c1
i | CN(C)C(CNC(=O)c1ccc(S(=O)(=O)N(C)C)cc1)c1cn(C)c2ccccc12 (configuration not stated)
i | O=C(NCC#CCOc1ccc2c(c1)OCO2)c1ccc(=O)[nH]c1
i | Cc1csc(NC(=O)Cn2nc(C(=O)N3CCN(C)CC3)cc2-c2cccs2)n1
i | O=C(c1ccccc1Cl)N1CCN(CCn2ccnc2-c2ccccc2)CC1
i | O=C(CSc1ccc(F)cc1)Nc1cccc2ccc(-n3ccnc3)nc12
i | COc1ccc(NC(=O)Cn2cc(-c3ccc(Cl)cc3)c(N(C)C)n2)cc1
i | CCOCC(=O)N1CCC(S(C)(=O)=O)CC1
i | O=C(NCCCn1ncccc1=O)c1ccco1
i | COc1cc(S(=O)(=O)NCCC2=CCCCC2)ccc1Br
i | O=C(c1cnn(-c2ccccc2)n1)N1CCCC(COCc2ccccc2)C1 (configuration not stated)
i | CSc1cccc(NC(=O)C(=O)NCC2(c3ccc(F)cc3)CC2)c1
i | Cc1cc(-c2nnc(NC(=O)c3cnn(-c4ccccc4)c3C)o2)c(C)o1
i | Cc1ccc(C(=O)c2cn(CC(=O)Nc3ccc(Cl)cc3)c3cc4c(cc3c2=O)OCO4)cc1
i | CC(=O)c1cccc(NC(=O)CN2CCN(c3ccc(F)c(F)c3)C2=O)c1
i | CCC(NCC(O)COc1ccc(N(C)C(C)=O)cc1)C(=O)O (configuration not stated)
i | Cc1cc(C)nc(Nc2nc(CC(=O)NCCc3ccc(S(N)(=O)=O)cc3)cs2)n1
i | COCCCNc1nc2c(c(=O)n(Cc3ccccc3Cl)c(=O)n2C)n1C
i | CN1C(=O)C(C)(C)COc2ccc(NC(=O)NCCc3ccccc3)cc21
i | Cc1nn(C2CCS(=O)(=O)C2)c(C)c1N1CCN(CC(=O)NCC2CCCO2)CC1 (configuration not stated)
i | Cc1nnc(CNC(=O)c2ccc3c(c2)ncn3-c2ccccc2)o1
i | COC(=O)c1ccc(S(=O)(=O)N2CCC(CSCc3ccco3)CC2)cc1
i | Cc1nn(C)cc1C(=O)NCCC(c1ccccc1)c1ccccc1
i | COc1ccc(-c2cc3c(=O)n(CC(=O)Nc4cc(Cl)ccc4C)ccn3n2)cc1OC

# Taken from above for reference:
GIRK2 activ | SMILES
i | Cc1nn(C)cc1C(=O)NCCC(c1ccccc1)c1ccccc1
i | COc1ccc(-c2cc3c(=O)n(CC(=O)Nc4cc(Cl)ccc4C)ccn3n2)cc1OC

# Entries listed so far with an NH in an aromatic ring:
GIRK2 activ | SMILES
i | O=C(CCn1cnc2c([nH]c3ccccc32)c1=O)N1CCN(c2cccc(Cl)c2)CC1
i | O=C(CN1CCc2[nH]c3ccc(F)cc3c(=O)c2C1)NC1CCCCC1
i | O=C(NCCc1c[nH]c2ccccc12)C(=O)c1cn(CC(=O)N2CCOCC2)c2ccccc12
i | COc1ccc(NC(=O)CSc2nc3c(c(=O)[nH]2)CN(Cc2ccccc2)CC3)c(OC)c1
i | O=C(NCC#CCOc1ccc2c(c1)OCO2)c1ccc(=O)[nH]c1

# Further structures:
GIRK2 activ | SMILES
i | O=C(NCC1(c2ccccc2)CCOCC1)C1CC(=O)N(c2ccc(F)cc2)C1 (configuration not stated)
i | O=C(NCC(O)c1ccoc1)c1ccccc1Cl (configuration not stated)
i | CSc1nc2ccc(NC(=O)NC3CCCC3)cc2s1
i | CCN(CCCNC(=O)C1CCN(c2ncnc3c2oc2ccccc23)CC1)c1ccccc1
i | COc1ccc(S(=O)(=O)NCC(c2ccsc2)N2CCCCCC2)cc1F (configuration not stated)
i | c1nc(NCCCN2CCOCC2)c2cn[nH]c2n1
i | N#Cc1nc(/C=C/c2ccc(Cl)cc2)oc1N1CCN(C(=O)c2ccco2)CC1
i | CCOC(=O)C(Sc1nnc(N)s1)c1ccccc1 (configuration not stated)
i | CCS(=O)(=O)N1CCCc2ccc(NS(=O)(=O)c3ccc(OC)cc3OC)cc21
i | OC(COc1ccc2ccccc2c1)CN1CCOCC1 (configuration not stated)
i | COc1cccc2sc(N(C)CC(=O)NCCCn3ncccc3=O)nc12
i | O=C(Nc1nc2c(s1)CN(C(=O)/C=C/c1ccccc1)CC2)NC1CCCC1
i | O=C(Cc1csc(Nc2ccc(OC(F)(F)F)cc2)n1)NCc1ccncc1
i | COc1cc(S(=O)(=O)NCCN2CCOCC2)c(OC)cc1C
i | Cc1ccc(C2CC3C4NN=C(CCC(=O)N5CCC(Cc6ccccc6)CC5)N4C=CN3N2)cc1C (configuration not stated)
i | O=C(c1cc(=O)c(OCc2ccc(F)cc2)c[nH]1)N1CCN(c2ccccc2)CC1
i | CC(C)(C)CC(=O)NCCCCN1CCCC1
i | O=C(c1c(F)cccc1F)N(C(=O)N1CCCCC1)c1ccc(Cl)cc1
i | Cc1ccc(S(=O)(=O)N(C)c2ccsc2C(=O)NC2CCCCCC2)cc1
i | COc1ccc(C(=O)Nc2cc(-n3c(C)nc4ccccc4c3=O)ccc2F)cc1
i | CCc1ccccc1NS(=O)(=O)c1ccc(CN2C(=O)c3ccccc3C2=O)cc1
i | Cc1cc(N2CCCCC2)nc(NCCNC(=O)c2ccc(S(=O)(=O)N(C)C)cc2)n1
i | Cc1cc(C)n(CCN2CCN(C(=O)/C=C/c3ccccc3Cl)CC2)n1
i | CCC(C(=O)NCC1CCN(C(=O)Oc2ccccc2)CC1)c1ccccc1 (configuration not stated)
i | Cc1csc(CN2CCN(C(=O)c3ccc([N+](=O)[O-])o3)CC2)n1
i | Cc1ccc(Cl)cc1N1CCN(CCn2c(C)cn3c4c(=O)[nH]c(=O)n(C)c4nc23)CC1
i | O=C(Nc1ccc2c(c1)OCCO2)c1coc(NC(=O)C2CC2)n1

# An excerpt. The share of hits here may be higher or lower than overall.
